VACV mCherry inh – vaccinia inhibition (mCherry reporter); Potency, µM (highest dose often 36.5 µM), inactives show top-dose activity change, negative = inhibition, most hits filed as inhibitors; Vaccinia virus mCherry reporter infection, fluorescence; about a quarter of the inactives have no number; hit rate 0.63% among 310,000; active = well fitted inhibition curve with a large enough effect; inconclusive = small, poorly fitted or top-dose-only effect; inactive = no such curve, though single readings can be large or run the other way; tested in A549 cells; also: nearly all actives have a fitted effect of over 35% in size; inactives centre near -10
Vaccinia Venus – inhibitors of vaccinia virus (Venus reporter); Potency, µM (doses to about 36.5 µM), inactives show top-dose activity change, negative = inhibition, actives largely listed as inhibitors; hit rate 0.46% among 330,000; Vaccinia virus Venus reporter expression, fluorescence; active means well fitted inhibition curve with a large enough effect; inconclusive means small, poorly fitted or top-dose-only effect; inactive means no such curve, though single readings can be large or run the other way; tested in A549 cells; also: nearly all actives have a fitted effect of over 30% in size; inactives centre near -10
The depositor's hits bear a star; i = inactive; ? = inconclusive; · = not tested or not shown; [ ] = another dose, or the depositor's remark. % is scaled to controls: 0 for no effect and ±100 for the full control effect; potency is read from the fitted curve at half-maximal effect.

SMILES | Vaccinia Venus | VACV mCherry inh
N=c1c2c(-c3ccccc3)c(-c3ccccc3)n(Cc3ccco3)c2ncn1Cc1ccco1 | 11µM* | ·
COc1ccc(OC)c(C(O)c2ncc(-c3ccc(C(F)(F)F)cc3)[nH]2)c1 (centres undefined) | -4% | 20%
Fc1ccc(-c2nc3c(-c4ccccc4)cnn3cc2CCN2CCOCC2)cc1 | -20% | -19%
Clc1ccccc1C1=NCc2nncn2-c2sc(Br)cc21 | 5% | -14%
O=C(CN1CCOCC1)NC1C2CC3CC(C2)CC1C3 (centres undefined) | ? | -7%
COc1ccc(-c2cc(C(=O)NCc3cccc(C(F)(F)F)c3)[nH]n2)c(C)c1 | -2% | -5%
CC1(C(=O)Nc2ccc3c(c2)OCCO3)CSCC(=O)N1CCc1ccccc1F (centres undefined) | 5% | -22%
Cc1cc(C)c(C#N)c(N2CCN(CCOc3ccc(Cl)cc3)CC2)n1 | -7% | -6%
CC(=O)O[C@H]1CC[C@@]2(C)[C@@H](CC[C@@H]3[C@@H]2CC[C@]2(C)[C@@H](C(C)(C)O)C[C@@H]32)C1 | -10% | i
COc1cccc(OCC(=O)Nc2nnc3n2CCS3)c1 | -2% | 8%
O=C(CCn1cnc2ccccc2c1=O)Nc1ccc2c(c1)OCCO2 | -15% | -25%
COc1ccc(N2CCOCC2)c(NC(=O)c2cccs2)c1 | -14% | i
O=C(C1CCCO1)N1CCN(C(=S)Nc2ccc(Cl)c(Cl)c2)CC1 (centres undefined) | -29% | ?
COc1ccc(C2C(=O)N(C3CCCCCC3)CC(=O)N2CCc2ccc(OC)c(OC)c2)cc1 (centres undefined) | 0% | -11%
CCn1c(C)nc2cc(C(=O)OCCC(F)(F)F)ccc21 | -10% | -11%
CC(=O)c1ccc(NC(=O)c2cnn3c2NC(=C2CC2)C=C3C(F)F)cc1 | -16% | -5%
CCCCN(C(=O)c1cccc(S(=O)(=O)N(C)c2ccc(C)cc2)c1)c1c(N)n(CCCC)c(=O)[nH]c1=O | -14% | -13%
Cc1cccc(-n2nnnc2SCC(=O)NC2CCCC2)c1 | -21% | -13%
Cn1nccc1C(=O)Nc1ccc(S(=O)(=O)N2CCCC2)cc1 | -5% | -12%
CCCCC(=O)N/N=C(\C)CC(=O)Nc1ccccc1Br | 1% | -13%
Cc1cc(C)c(NC(=O)c2cc(CN3CCOCC3)on2)c(C)c1 | -4% | 0%
Cc1ccc(S(=O)(=O)NNC(=O)CCC(=O)Nc2ccc(C)cc2C)cc1 | -24% | -27%
Cc1ccc(N=Nc2cc(C)ccc2N)cc1 | -9% | i
O=C1Nc2ccccc2Oc2cc([N+](=O)[O-])cc(Oc3ccccc3)c21 | 5% | -24%
COc1ccc(CCN(C)C(=O)CN2C(=O)NC3(CCCCC3C)C2=O)cc1OC (centres undefined) | -9% | i

(list continues)
SMILES | Vaccinia Venus | VACV mCherry inh
CCOc1cc(C=NN2CCCCCC2)ccc1O | -8% | -26%
CC1(c2ccc(O)cc2)NC(=O)N(c2ccccc2)N1 (centres undefined) | -1% | -24%
Cc1c(Cl)ccc(S(=O)(=O)N2CCN=C2c2ccccc2)c1Cl | -18% | -2%
COc1cc(SC)ccc1C(=O)NC(C)C | -7% | i
O=C(NC(=O)c1ccc(F)cc1)Nc1nc(-c2cccs2)cc(C(F)(F)F)n1 | -23% | -30%
OCCNc1nc(-c2ccccc2)c2ccccc2n1 | 0% | 42%[activator]
Cn1cc(Cc2ccccc2)c(=O)c(Cc2ccccc2)c1 | -4% | i
COc1ccccc1NC(=O)N1CCc2[nH]c3ccc(F)cc3c2C1 | ? | ·
CCn1ccnc1CN1CCCC(C(=O)c2cc(Cl)ccc2OC)C1 (centres undefined) | -21% | -23%
COc1ccc(-c2nc(-c3ccccc3)c(-c3cc([N+](=O)[O-])ccc3C)[nH]2)cc1OC | ? | ?
C/C(=N/O)c1ccc2c(c1)OCCOCCOc1cc(/C(C)=N/O)ccc1OCCOCCO2 | -25% | -11%
COc1ccc(-c2cn3nc4c(nc3n2)CCCC4)cc1 | -11% | ·
O=C(COC(=O)CCCOc1ccccc1)NC1CCS(=O)(=O)C1 (centres undefined) | -8% | -13%
CCOC(=O)C1CCN(C(=O)CCc2nnc3ccc(N4CCN(C)CC4)nn23)CC1 | -4% | -6%
COc1ccccc1Oc1ncnc2c1oc1ccccc12 | -2% | -4%
O=c1c2cc(Br)ccc2nc(-c2cccc(Cl)c2)n1O | 1% | -15%
COc1ccccc1CNC(=O)C1CCN(Cc2nc(-c3ccc(OC)c(OC)c3)oc2C)CC1 | -4% | -1%
COc1ccccc1Oc1ccc2c(c1)C(=O)N(c1cccc3ncccc13)C2=O | -16% | -6%
COCCCNc1nc2c(c(=O)[nH]c(=O)n2C)n1CC(O)COc1cccc(C)c1 (centres undefined) | -26% | ·
O=C(Cn1ccc2cc(S(=O)(=O)N3CCCC3)ccc21)NCc1ccccc1Cl | -2% | -4%
CCOc1ccc(S(=O)(=O)N2CN(c3cccc(C(C)=O)c3)c3nc4ccccc4nc32)cc1 | -7% | i
O=C(COc1ccc(S(=O)(=O)N2CCOCC2)cc1)NCC1CCCO1 (centres undefined) | -12% | 0%
Cc1c(C(=O)N/N=C/c2ccc(Cl)cc2)[nH]c2ccc(Cl)cc12 | ? | ?
N[C@@H](Cc1ccccc1)C(=O)N1CCC(C(=O)NCC(=O)NCC(=O)O)CC1 | -3% | -11%
COc1cc(-c2nnc(COC(=O)c3cc(C)nc4ccc(C)cc34)o2)cc(OC)c1OC | 5% | ·

Fetched by compound from the entries so far, two records:
SMILES | Vaccinia Venus | VACV mCherry inh
O=C(COc1ccc(S(=O)(=O)N2CCOCC2)cc1)NCC1CCCO1 (centres undefined) | -12% | 0%
O=C(COC(=O)CCCOc1ccccc1)NC1CCS(=O)(=O)C1 (centres undefined) | -8% | -13%

Next part.
SMILES | Vaccinia Venus | VACV mCherry inh
CCCCn1c(N)c(N(CCOC)C(=O)COC(=O)/C=C/c2ccc(Br)cc2)c(=O)[nH]c1=O | -14% | -21%
COC(=O)N/N=C/c1ccc(-c2ccc(Cl)cc2Cl)o1 | -20% | -8%
COc1ccc(N2CCN(C(=O)Cn3cncn3)CC2)cc1 | -8% | i
COCCNC(=O)C1(C)CCCN(Cc2cc(-c3ccccc3)on2)C1 (centres undefined) | -1% | 2%
COc1ccc(Oc2ccccc2C=O)cc1 | -17% | -18%
COc1ccccc1C(=O)N1CCOc2ccc(CN3CCN(Cc4ccccn4)CC3)cc2C1 | 3% | -11%
COc1ccccc1C1CC(=O)Oc2cc(C)c(Cl)c(C)c21 (centres undefined) | -3% | -7%
CCN(CC)C(=O)CSC1=N/C(=C/c2ccco2)C(=O)N1c1ccc(OC)c(Cl)c1 | -9% | -6%
O=c1[nH]c(=O)n(Cc2ccc(F)cc2)c(O)c1/C=N/Nc1ccccc1 | 2% | -17%
O=C1C=C(c2cc(C(F)(F)F)cc(C(F)(F)F)c2)C[C@@H](c2ccc3c(c2)OCO3)C1 | -15% | -4%
COc1ccc(/C=C(/NC(=O)/C=C/c2ccccc2)C(=O)NCCCCCC(=O)O)cc1 | -16% | -9%
CCOC(=O)c1ccc(NC(=O)c2cnccn2)cc1 | -5% | -9%
O=C(NC1CCS(=O)(=O)C1)/C(=C\c1ccc(F)cc1)NC(=O)c1ccccc1 (centres undefined) | -2% | 0%
C/C(=N\NC(=O)CNC(=O)C(c1ccccc1)c1ccccc1)c1ccccc1 | -5% | -8%
Nc1ccc(Cc2ccc(N)c(Cl)c2)cc1Cl | -27% | -10%
Cn1nnnc1SCc1nc2ccccc2[nH]1 | ? | ·
CC(=O)Nc1ccc(S(=O)(=O)N(C)c2ccc(OCC(=O)OCC(=O)Nc3ccc(OC(F)F)cc3)cc2)cc1 | -1% | i
O=C(CN1CCN(S(=O)(=O)c2ccc3c(c2)OCCCO3)CC1)N1CCc2ccccc21 | -15% | -8%
CCCCN(C)C(=O)c1ccc2c(c1)N(CC)C(=O)c1ccccc1S2=O (centres undefined) | -10% | -12%
COC(=O)C1CC(c2ccc(Cl)cc2)=NO1 (centres undefined) | -8% | -4%
CN(C)S(=O)(=O)c1ccc(C(=O)OC2CCOC2=O)cc1 (centres undefined) | -2% | -6%
Cc1ccc(CCNC(=O)c2cc(C)nc3c2c(C)nn3-c2ccc(C)cc2)cc1 | -13% | -8%
CCC1(c2ccccc2)NC(=O)N(Cc2ccc(C(=O)OC)cc2)C1=O (centres undefined) | -13% | i
COc1cccc(CNC(=O)C2CCN(c3nnc(-n4c(C)ccc4C)s3)CC2)c1 | -6% | -6%
Cc1onc(-c2c(F)cccc2Cl)c1C(=O)NCc1ccc2c(c1)OCO2 | -11% | i

Next section.
SMILES | Vaccinia Venus | VACV mCherry inh
COC(=O)c1cccc(NC(=O)c2nsc3ccccc23)c1 | -6% | 0%
CN(C)c1ccnc(Oc2ccc(Cl)cc2)c1C#N | -17% | -6%
CCOc1ccc(NC(=O)C2C3CC/C=C\CCC32)cc1 (centres undefined) | -9% | -5%
COc1ccc(-c2csc3ncnc(N4CCN(S(=O)(=O)c5cccc(Br)c5)CC4)c23)cc1 | -12% | i
Cc1cc(C)cc(Oc2ccccc2/C=N\O)c1 | -21% | ·
COc1ccccc1N1CCN(C(=O)COc2ccc(C)cc2Br)CC1 | ? | ?
O=[N+]([O-])c1cccnc1Sc1ccc(Br)cc1 | -5% | -23%
COC(=O)c1ccc(-c2ccco2)n1Cc1nc(-c2ccc(OC)c(OC)c2)oc1C | -15% | ·
CC(=O)c1c(C)oc2ccc(N(C(=O)c3ccncc3)S(=O)(=O)c3ccccc3)cc12 | -21% | -27%
C=CCNC(=O)C(=O)N/N=C/c1ccco1 | -15% | i
O=C1c2ccc3c4c(ccc(c24)C(=O)N1c1ccc(O)cc1)C(=O)N(c1ccc(O)cc1)C3=O | 4% | 9%
O=C(CN1CCN(C(=O)c2ccco2)CC1)Nc1cccc([N+](=O)[O-])c1 | 1% | -6%
COC1C[C@@H](O[C@@H]2C(C)C(=O)OC(C)C(C)[C@H](OC(C)=O)C(C)C(=O)[C@@]3(CO3)CC(C)C(OC3OC(C)CC(N(C)C)[C@H]3OC(C)=O)C2C)OC(C)[C@@H]1OC(C)=O (some centres undefined) | -10% | -16%
O=C(Nc1cccc(C(F)(F)F)c1)OCCN1CCN(Cc2ccccc2)CCC1=O | -21% | -18%
CCS(=O)(=O)N1CCC(C(=O)NCc2ccc(OC)cc2)CC1 | -9% | -1%
CCOC(=O)c1ccc(NC(=O)C(CC)Sc2nc3ncccc3o2)cc1 (centres undefined) | -3% | -12%
COc1ccc(CC(=O)Nc2sccc2C#N)cc1S(=O)(=O)N1CCOCC1 | -2% | -16%
CN(C)c1nc2c(N)ncnc2n1[C@H]1O[C@@H](CO)[C@H](O)[C@@H]1O | -11% | i
Cc1ccc([C@H]2C[C@H](O)[C@@H](n3cc(COC(=O)c4ccccc4)nn3)CN2C(=O)c2cccs2)cc1 | -26% | 1%
CCCCn1c(N)c(N(CCC(C)C)C(=O)c2ccc(C)c(S(=O)(=O)N3CCOCC3)c2)c(=O)[nH]c1=O | -9% | -17%
CCOCCCNC(=O)C(NC(=O)Cc1cccs1)c1ccc(OC)cc1 (centres undefined) | -3% | -14%
Cc1cc2nc(-c3ccc(F)cc3)c(CC(C)(C)C)n2c(C)c1Br | -6% | -8%
COc1ccc([N+](=O)[O-])cc1N(CC(O)CN(C)C)S(=O)(=O)c1ccccc1 (centres undefined) | -7% | i
Cc1ccccc1CNC(=O)CN1C(=O)c2ccccc2S1(=O)=O | -3% | i
COc1ccc(CCNC(=O)C2CCN(c3nc4ccccc4nc3C(F)(F)F)CC2)c(OC)c1 | -7% | -4%

Additional entries follow:
SMILES | Vaccinia Venus | VACV mCherry inh
Cn1cnc(S(=O)(=O)Nc2ccccc2C(=O)NCC2CC2)c1 | -12% | i
COC1=CC(=O)[C@]2(C=C1OC)OC[C@@H]1Oc3c(ccc4c3C=CC(C)(C)O4)C(=O)[C@@H]12 | -25% | ?
CCN(CC)c1ccc(-c2nnc(SCC(=O)Nc3ccccc3C#N)n2-c2ccccc2)cc1 | ? | ·
Cc1cc(NC(=O)NC(=O)c2ccc(F)cc2F)n[nH]1 | -13% | ·
Cc1ccc(CNC(=O)C2CCN(S(=O)(=O)c3ccc(F)cc3)CC2)cc1 | -9% | -18%
CCOC(=O)c1cccc(NC(=O)CN2C(=O)C3CC=CCC3C2=O)c1 (centres undefined) | -11% | i
Cc1ccc(C)c(N2CCN(C(=O)c3ccc(CS(=O)Cc4cccc(Cl)c4)o3)CC2)c1 (centres undefined) | -19% | i
Cc1ccc(-c2n[nH]c(S(C)(=O)=O)c2C#N)cc1 | -9% | -11%
COc1ccc(Cl)cc1NC(=O)Cn1nnc(C(=O)NCc2cccs2)c1N | -21% | i
C[C@@H]1CN([C@@H](C)CO)C(=O)CCCn2nncc2CO[C@H]1CN(C)S(=O)(=O)c1ccc2c(c1)OCCCO2 | -16% | -5%

Some of these compounds in order of SMILES length, lowest first.
SMILES | Vaccinia Venus | VACV mCherry inh
Cc1ccc(-c2n[nH]c(S(C)(=O)=O)c2C#N)cc1 | -9% | -11%
Cn1cnc(S(=O)(=O)Nc2ccccc2C(=O)NCC2CC2)c1 | -12% | i
CCOC(=O)c1cccc(NC(=O)CN2C(=O)C3CC=CCC3C2=O)c1 (centres undefined) | -11% | i

Assay outcomes from PubChem BioAssay.
